Source: PubChem BioAssay
UUG fidelity: modulators of yeast start codon fidelity, primary screen, whole organism, S. cerevisiae, single point, plate reader; AID 602363, 2012; activity score, % at 18.7 µM; S. cerevisiae UUG-firefly luciferase reporter, luminescence/redox ratio; actives 0.13% (n = 350,000);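 active means replicate mean at a twofold rise or more, about +100% in these data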;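 further: firefly luciferase made from a UUG start codon reports start codon fidelity; reporter light over untreated wells divided by growth signal over untreated wells; some hits fall short of that in this replicate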
Env fusion inh: inhibitors of HIV-1 Env-driven cell-cell fusion, primary screen, HeLa-JRFL effector, CEM21 target cells, luciferase | inhibition, % at 12.3 µM | actives 1.1% (n = 360,000) | AID 651610, 2012;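 active means mean replicate inhibition score of at least 50 and every replicate individually at or above 50; inconclusive means only one of the two criteria met; inactive means mean below 50 and not all replicates reaching 50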;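 further: 0% = plate neutral controls and 100% = maraviroc near 300 nM; one replicate is shown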
* marks the source's active call; other numbers are inactive results; ? = inconclusive; [ ] = another dose, or the depositor's remark. Only part of the results is shown (hit frequency here may not be typical).

SMILES | UUG fidelity | Env fusion inh
C=CCN1Cc2ccccc2[C@H]2OC(c3ccc(OCCCO)cc3)=N[C@@]2(CCS(=O)(=O)c2ccccc2)C1=O | -3 | 1[16.7 µM]
C[C@H](CO)N1C[C@H](C)[C@H](CN(C)C(=O)Nc2ccc(N3CCCCC3)cc2)OCc2cnnn2CCCC1=O | 0 | 17
Cn1cnc(S(=O)(=O)N2C[C@H](O)COC[C@H]3O[C@H](CC(=O)N4CCN(c5ccccc5)CC4)CC[C@@H]32)c1 | -7 | -4[16.7 µM]
Cc1ccc(S(=O)(=O)N[C@H]2C=C[C@@H](CC(=O)O)O[C@H]2CO)cc1 | -17 | ?
C[C@@H]1CN([C@@H](C)CO)C(=O)c2cc(NS(=O)(=O)c3ccccc3)ccc2O[C@@H]1CN(C)C(=O)Nc1cccc2ccccc12 | 5 | 4[16.7 µM]
CC(C)NC(=O)Nc1ccc2c(c1)C(=O)N([C@H](C)CO)C[C@H](C)[C@H](CN(C)C(=O)Nc1ccc(C(F)(F)F)cc1)OCCCC[C@@H](C)O2 | -13 | -17[16.7 µM]
C[C@@H]1CN([C@@H](C)CO)S(=O)(=O)c2ccc(-c3ccccc3)cc2O[C@H]1CN(C)C(=O)c1ccccc1F | 8 | 15[16.7 µM]
C[C@@H]1CN([C@@H](C)CO)C(=O)c2cc(N(C)C)ccc2O[C@@H](C)CCCCO[C@@H]1CN(C)Cc1ccncc1 | -4 | 6[16.7 µM]
CNC[C@@H]1Oc2cc(-c3ccc(OC)cc3)ccc2S(=O)(=O)N([C@@H](C)CO)C[C@H]1C | 18 | -5[16.7 µM]
O=C(C[C@@H]1C[C@@H]2c3cc(NC(=O)Nc4ccccc4)ccc3O[C@@H]2[C@@H](CO)O1)NCc1cccc(F)c1 | -16 | 13[16.7 µM]
COc1ccc(NC(=O)Nc2cccc3c2O[C@@H](CN(C)C(=O)Nc2cccc4ccccc24)[C@H](C)CN([C@H](C)CO)C3=O)cc1 | -3 | -30[16.7 µM]
CN1CCN(C(=O)C[C@@H]2CC[C@H](NC(=O)Cc3ccccn3)[C@H](CO)O2)CC1 | -2 | 6[16.7 µM]
C[C@H](CO)N1C[C@H](C)[C@@H](CN(C)Cc2ccc(C(F)(F)F)cc2)OCCCC[C@H](C)Oc2ccc(NC(=O)Cc3ccccc3)cc2C1=O | 2 | 40[16.7 µM]
CNC[C@H]1OCCCC[C@H](C)Oc2ccc(NC(=O)Nc3ccc(OC)cc3)cc2C(=O)N([C@H](C)CO)C[C@H]1C | 3 | -4[16.7 µM]
CC(C)NC(=O)N(C)C[C@@H]1OCCCC[C@H](C)Oc2ccc(NC(=O)NC3CCCCC3)cc2C(=O)N([C@@H](C)CO)C[C@@H]1C | 6 | -15[16.7 µM]
C[C@@H]1CN([C@@H](C)CO)C(=O)c2cccc(NC(=O)c3ccc(-c4nccs4)cc3)c2O[C@H]1CN(C)C(=O)Nc1cccc2ccccc12 | 33 | -1[16.7 µM]
COc1ccc(-c2cnc3c(c2)C(=O)N([C@@H](C)CO)C[C@H](C)[C@H](CN(C)Cc2ccc(C(=O)O)cc2)O3)cc1 | 4 | 11[16.7 µM]
COc1ccc(NC(=O)Nc2ccc3c(c2)C(=O)N([C@H](C)CO)C[C@@H](C)[C@H](CN(C)S(=O)(=O)c2cn(C)cn2)O3)cc1 | -10 | 13[16.7 µM]
COc1ccc(S(=O)(=O)Nc2ccc3c(c2)C(=O)N([C@H](C)CO)C[C@@H](C)[C@H](CN(C)S(C)(=O)=O)OCCCC[C@@H](C)O3)cc1 | 12 | -2[16.7 µM]
C[C@H](CO)N1C[C@H](C)[C@H](CN(C)Cc2ccc3c(c2)OCO3)OCCCC[C@H](C)Oc2ccc(NC(=O)c3ccncc3)cc2C1=O | 8 | -22[16.7 µM]
CC(=O)N(C)C[C@H]1Oc2ncc(-c3ccc(C)cc3)cc2C(=O)N([C@H](C)CO)C[C@H]1C | -5 | -4[16.7 µM]
C[C@@H]1CN([C@@H](C)CO)S(=O)(=O)c2ccc(C#CC3CC3)cc2O[C@@H]1CN(C)C | -6 | -1[16.7 µM]
COc1ccc(S(=O)(=O)Nc2ccc3c(c2)C(=O)N([C@@H](C)CO)C[C@H](C)[C@H](CN(C)C(=O)Nc2ccc4c(c2)OCO4)O3)cc1 | 2 | 23[16.7 µM]
O=C(Nc1ccc(F)cc1)Nc1ccc2c(c1)[C@@H]1C[C@@H](CC(=O)N3CCCCC3)O[C@H](CO)[C@@H]1O2 | 21 | 1[16.7 µM]

Four entries out of the list above, ordered by the value under UUG fidelity, largest number first.
SMILES | UUG fidelity | Env fusion inh
C[C@H](CO)N1C[C@H](C)[C@H](CN(C)Cc2ccc3c(c2)OCO3)OCCCC[C@H](C)Oc2ccc(NC(=O)c3ccncc3)cc2C1=O | 8 | -22[16.7 µM]
COc1ccc(-c2cnc3c(c2)C(=O)N([C@@H](C)CO)C[C@H](C)[C@H](CN(C)Cc2ccc(C(=O)O)cc2)O3)cc1 | 4 | 11[16.7 µM]
CC(=O)N(C)C[C@H]1Oc2ncc(-c3ccc(C)cc3)cc2C(=O)N([C@H](C)CO)C[C@H]1C | -5 | -4[16.7 µM]
C[C@@H]1CN([C@@H](C)CO)S(=O)(=O)c2ccc(C#CC3CC3)cc2O[C@@H]1CN(C)C | -6 | -1[16.7 µM]

(further entries)
SMILES | UUG fidelity | Env fusion inh
Cc1noc(C)c1NC(=O)N(C)C[C@H]1Oc2c(NC(=O)NC(C)C)cccc2C(=O)N([C@@H](C)CO)C[C@@H]1C | 4 | 6[16.7 µM]
Cc1ccc(S(=O)(=O)Nc2cccc3c2O[C@H](CN(C)Cc2ccncc2)[C@@H](C)CN([C@@H](C)CO)C3=O)cc1 | -12 | -12[16.7 µM]
C[C@H]1CN([C@@H](C)CO)C(=O)c2cc(C#CC3CCCCC3)cnc2O[C@@H]1CN(C)C(=O)c1ccncc1 | -9 | -8[16.7 µM]
COc1ccc(NC(=O)Nc2ccc3c(c2)C(=O)N([C@@H](C)CO)C[C@H](C)[C@H](CN(C)S(=O)(=O)c2ccc(F)cc2)O3)cc1 | 8 | 52[16.7 µM]
CCC(=O)Nc1ccc2c(c1)C(=O)N(C)[C@H]1CC[C@H](CC(=O)N[C@H](C)c3ccccc3)O[C@H]1CO2 | 0 | 2[16.7 µM]
COc1ccc(NC(=O)N(C)C[C@@H]2Oc3c(cccc3N(C)C)C(=O)N([C@@H](C)CO)C[C@H]2C)cc1 | -2 | 23[16.7 µM]
Cc1noc(C)c1S(=O)(=O)Nc1ccc2c(c1)C(=O)N([C@@H](C)CO)C[C@@H](C)[C@H](CN(C)C(=O)Nc1ccc(C(F)(F)F)cc1)O2 | -8 | -4[16.7 µM]
O=C(NCC[C@H]1CC[C@@H](NC(=O)C2CCCCC2)[C@H](CO)O1)c1cnccn1 | 2 | -15[16.7 µM]
O=C(Cc1ccccn1)NCC[C@@H]1CC[C@@H](NC(=O)CN2CCOCC2)[C@@H](CO)O1 | 0 | -5[16.7 µM]
COc1ccc(S(=O)(=O)Nc2ccc3c(c2)C(=O)N([C@H](C)CO)C[C@@H](C)[C@H](CN(C)C(=O)C2CCCCC2)OCCCC[C@@H](C)O3)cc1 | 36 | -14[16.7 µM]
CCCC#Cc1cnc2c(c1)C(=O)N([C@@H](C)CO)C[C@H](C)[C@H](CN(C)C(=O)c1ccc3c(c1)OCO3)O2 | 13 | -18[16.7 µM]
CO[C@H]1CN(C)C(=O)c2ccc(NC(=O)C3CC3)cc2OC[C@H](C)N(CC2CCOCC2)C[C@H]1C | -2 | 26[16.7 µM]
C[C@@H]1CN([C@H](C)CO)C(=O)c2cccc(NC(=O)C3CCOCC3)c2O[C@@H]1CN(C)Cc1ccncc1 | -12 | -6[16.7 µM]
CN1C(=O)c2cc(NC(=O)C3CCCCC3)ccc2OC[C@@H]2O[C@@H](CC(=O)NCCc3ccncc3)CC[C@@H]21 | -7 | 2[16.7 µM]
Cc1ccc(S(=O)(=O)Nc2cccc3c2O[C@@H](CN(C)C(=O)Nc2ccc(F)cc2)[C@@H](C)CN([C@@H](C)CO)C3=O)cc1 | -6 | -25[16.7 µM]
C[C@H]1CN([C@@H](C)CO)C(=O)c2cc(NC(=O)Nc3ccc(C(F)(F)F)cc3)ccc2O[C@H]1CN(C)S(=O)(=O)c1cccs1 | -14 | 14[16.7 µM]
CCCNC(=O)C[C@@H]1CC[C@@H]2[C@H](COc3ccc(NC(=O)c4ccc(OC)cc4)cc3C(=O)N2C)O1 | 7 | 12[16.7 µM]
C[C@@H]1CN([C@@H](C)CO)C(=O)c2cc(NC(=O)Nc3ccc4c(c3)OCO4)ccc2O[C@@H](C)CCCCO[C@@H]1CN(C)S(=O)(=O)c1cccs1 | -12 | 3[16.7 µM]
C[C@@H]1CCCCO[C@@H](CN(C)S(=O)(=O)c2cn(C)cn2)[C@H](C)CN([C@@H](C)CO)C(=O)c2cc(NC(=O)Nc3cccc4ccccc34)ccc2O1 | 5 | 8[16.7 µM]
Cc1ccc(S(=O)(=O)N(C)C[C@@H]2Oc3ccc(NS(C)(=O)=O)cc3C(=O)N([C@H](C)CO)C[C@H]2C)cc1 | -7 | 0[16.7 µM]
C[C@H](CO)N1C[C@H](C)[C@H](CN(C)C(=O)Nc2ccc(F)cc2)Oc2ccc(NC(=O)Nc3ccc(C(F)(F)F)cc3)cc2CC1=O | 7 | 18[16.7 µM]
O=C(C[C@@H]1C[C@@H]2c3cc(NC(=O)Nc4ccc(C(F)(F)F)cc4)ccc3O[C@@H]2[C@@H](CO)O1)NCCc1ccccc1 | -18 | 1[16.7 µM]
Cc1noc(C)c1NC(=O)NCC[C@H]1CC[C@@H](NC(=O)c2ccccc2)[C@H](CO)O1 | -4 | 10[16.7 µM]
O=C(C[C@@H]1CC[C@H](NC(=O)c2ccccn2)[C@@H](CO)O1)NCc1cccc(F)c1 | -8 | -1[16.7 µM]

Pulled by compound from above:
SMILES | UUG fidelity | Env fusion inh
C[C@@H]1CN([C@@H](C)CO)C(=O)c2cc(NC(=O)Nc3ccc4c(c3)OCO4)ccc2O[C@@H](C)CCCCO[C@@H]1CN(C)S(=O)(=O)c1cccs1 | -12 | 3[16.7 µM]
Cc1ccc(S(=O)(=O)Nc2cccc3c2O[C@H](CN(C)Cc2ccncc2)[C@@H](C)CN([C@@H](C)CO)C3=O)cc1 | -12 | -12[16.7 µM]

(further entries)
SMILES | UUG fidelity | Env fusion inh
C[C@@H]1CN([C@@H](C)CO)C(=O)Cc2cc(NS(=O)(=O)c3ccc(F)cc3)ccc2O[C@H]1CN(C)Cc1ccccc1 | -3 | -1[16.7 µM]
CC(C)NC(=O)N(C)C[C@@H]1Oc2ncc(C#Cc3ccncc3)cc2C(=O)N([C@H](C)CO)C[C@@H]1C | 0 | ?
C[C@H]1CN([C@@H](C)CO)S(=O)(=O)c2ccc(C#CCN(C)C)cc2O[C@@H]1CN(C)C | 20 | -28[16.7 µM]
COc1ccc(S(=O)(=O)Nc2ccc3c(c2)CC(=O)N([C@H](C)CO)C[C@@H](C)[C@H](CN(C)CC2CCCCC2)O3)cc1 | -1 | 11[16.7 µM]
COCC(=O)Nc1ccc2c(c1)OC[C@@H](C)N(CCC(F)(F)F)C[C@H](C)[C@H](OC)CN(C)C2=O | 8 | 10[16.7 µM]
Cc1ccccc1-c1ccc2c(c1)O[C@H](CN(C)C(=O)c1ccccn1)[C@@H](C)CN([C@H](C)CO)S2(=O)=O | -6 | 5[16.7 µM]
COc1ccc(CNC(=O)C[C@H]2CC[C@H]3[C@H](COc4ccc(NC(=O)C5CC5)cc4C(=O)N3C)O2)cc1 | 10 | -9[16.7 µM]
Cc1noc(C)c1S(=O)(=O)Nc1ccc2c(c1)C(=O)N([C@@H](C)CO)C[C@@H](C)[C@H](CN(C)C)OCCCC[C@H](C)O2 | 16 | 4[16.7 µM]
Cc1noc(C)c1NC(=O)Nc1ccc2c(c1)C(=O)N([C@H](C)CO)C[C@H](C)[C@H](CN(C)Cc1ccncc1)OCCCC[C@H](C)O2 | -4 | -17[16.7 µM]
COCc1cn(CC[C@@H]2CC[C@H](NC(=O)Nc3ccc(OC)cc3)[C@@H](CO)O2)nn1 | 2 | -13[16.7 µM]
C[C@H](CO)N1C[C@H](C)[C@@H](CN(C)S(=O)(=O)c2ccc(Cl)cc2)OCCCC[C@H](C)Oc2ccc(NC(=O)CCCN(C)C)cc2C1=O | 0 | 6[16.7 µM]
C[C@H]1CN([C@@H](C)CO)S(=O)(=O)c2ccc(/C=C/c3ccccc3)cc2O[C@H]1CN(C)C(=O)Nc1cc(F)ccc1F | 4 | 15[16.7 µM]
C[C@@H]1CN([C@@H](C)CO)C(=O)Cc2cc(NS(=O)(=O)c3cccs3)ccc2O[C@@H]1CN(C)Cc1ccc(-c2ccccc2)cc1 | 3 | -6[16.7 µM]
Cc1ccc(S(=O)(=O)Nc2ccc3c(c2)C(=O)N([C@@H](C)CO)C[C@@H](C)[C@@H](CN(C)S(=O)(=O)c2ccccc2)OCCCC[C@@H](C)O3)cc1 | -14 | -14[16.7 µM]
C[C@H](CO)N1C[C@H](C)[C@H](CN(C)Cc2ccc(-c3ccccc3)cc2)Oc2ccc(NC(=O)C3CC3)cc2CC1=O | 9 | -32[16.7 µM]
C[C@@H]1CCCCO[C@H](CN(C)Cc2ccc3c(c2)OCO3)[C@@H](C)CN([C@@H](C)CO)C(=O)c2cc(NC(=O)Nc3ccc(C(F)(F)F)cc3)ccc2O1 | 0 | ?
C[C@@H]1CN([C@H](C)CO)C(=O)Cc2cc(NC(=O)CCCCCC(=O)Nc3ccccc3N)ccc2O[C@H]1CN(C)CC1CC1 | -6 | -10[16.7 µM]
